BasE inh: BasE siderophore biosynthesis inhibition; purified BasE, fluorescence polarization binding displacement; inhibition, % (test concentration not listed); actives 0.1% (n = 84,000); AID 485350;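 active = both replicates above 25% with normal brightness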;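 note: 0% = negative plate control signal and 100% = positive plate control signal; stock transfer was 100 nL into about 30 µL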
KSHV LANA nucl: LANA-nucleosome interaction inhibition | actives 0.3% (n = 51,000) | z-score (concentration not given with the values) | FITC-LANA1-23 / chicken nucleosome fluorescence polarization; hits give low values;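 active = both repeat wells score below -2 in polarization z-score versus plate sample wells, excluding overly bright wells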;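 note: 100 nL library stock added to about 30 µL; numbers are from one replicate; some results filed as inactive read as strong as hits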
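Test system: purified chicken nucleosomes with FITC-labelled LANA N-terminal peptide (1-23); Input: 240 nM purified chicken nucleosomes (480 nM peptide binding sites), final; Medium: TEN-BT buffer, pH 7.5; Timing: 10–45 min, room temperature; Technique: fluorescence polarization, 480 nm excitation, 535 nm parallel and perpendicular emission; Replication: duplicates.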
* hit, by the source's call; . = not tested or not shown; & = joins results of further samples.

SMILES	BasE inh	KSHV LANA nucl
COC(=O)c1ccc(C)c(NC(=O)C(OC)c2ccccc2)c1 (configuration not stated)	-1.9	-0.5
CCCCCCCCCCCCCCCCCCCCCCO	.	0.29
O=C(CN1CCOCC1)Nc1ccc(Cl)c(NC(=O)c2ccc(Cl)cc2)c1	-0.9	0.74
Cc1[nH]c(=O)[nH]c(=O)c1CSCC(=O)O	2.4	0.17
CC(C)c1ccc(CN(C)CC(O)COCc2ccc3c(c2)OCO3)cc1 (configuration not stated)	-0.2	.
O=C1NC(=S)S/C1=C\c1ccccc1C(F)(F)F	.	-0.36
NC(=O)c1ccsc1NC(=O)c1coc2ccccc2c1=O	-1.5	2.8
Cc1nnsc1C(=O)Nc1ccc(C(N)=O)cc1	-1.8	-0.23
CC(C)Cn1c(N)c(Br)c(=O)[nH]c1=O	0.5	.
COc1cc(C2NC(=O)C3C4=C(CCC4)SC3N2)ccc1OCC(=O)Nc1ccc(C)cc1 (configuration not stated)	-11	.
CC(C)C(=O)Nc1noc2ccccc12	1.2	2
Cc1nc2ccc(C(=O)OCC(=O)c3ccc4c(c3)OCCO4)cc2nc1C	-0.7	.
COc1ccc(-c2noc(CCCC(=O)N(C)C)n2)cc1	-0.5	1.2
Cc1ccc(NC(=O)Cn2cc(C#N)c3ccccc32)cc1	-3.2	2.5
Cc1nc2scc(-c3cccs3)c2c(=O)n1CC(=O)OCC#N	-1.6	.
CCn1c(SCc2nc3ccccc3[nH]2)nc2cc(C(=O)OC)ccc2c1=O	-0.4	.
Cc1cc(C(F)(F)F)c(C#N)c(SCC(=O)O)n1	0.7	-1.3
CCC(=O)N(CCN1C(=O)c2ccccc2C1=O)c1ccc(C)cc1C	1.1	.
CN=C1S/C(=C/c2cccc(F)c2)C(=O)N1C	4.2	.
CCOC(=O)c1csc(Cc2c(Cl)sc3ccc(Cl)cc23)n1	-0.4	.

In another format: results already given.
SMILES: CCCCCCCCCCCCCCCCCCCCCCO
  BasE inh = .; KSHV LANA nucl = 0.29

SMILES: NC(=O)c1ccsc1NC(=O)c1coc2ccccc2c1=O
  BasE inh = -1.5; KSHV LANA nucl = 2.8

SMILES: Cc1cc(C(F)(F)F)c(C#N)c(SCC(=O)O)n1
  BasE inh = 0.7; KSHV LANA nucl = -1.3

Additional entries:
SMILES	BasE inh	KSHV LANA nucl
COC(=O)C[N+]1(Cc2ccco2)CCCCC1	0.1	-0.34
COC(=O)c1ccc(C=Nc2ccc(O)c(-c3nc4ccccc4o3)c2)cc1	-2.4	0.38
CCCCCCCCCCCCCCCC(=O)N[C@H](CN1CCOCC1)[C@H](O)c1ccccc1	-3.4	0.81
C=CCNC(=S)Nc1ccc(C)cc1	2.6	.
CCCN(CCC)C(=O)COc1cc(=O)n(CC)c2ccccc12	0.8	-0.99
C[C@]12C=CC(=O)C=C1CC[C@@H]1[C@@H]2C(=O)C[C@@]2(C)[C@H]1CC[C@]2(O)C(=O)CO	-0.1	-0.5&0.39
CCC(C)(C)NC(=O)Cn1c(-c2ccc(C)cc2)noc1=O	-1.8	0.93
Cc1cc(C)c(C(=O)Cn2c(=O)oc3ccccc32)c(C)c1	1.9	.
CCc1cnc(/N=C/N(C)C)nc1-c1c(F)cccc1F	1.2	.
COCCCn1c(-c2cc3ccccc3o2)csc1=Nc1ccccc1F	1.8	.
NCC[C@H](O)C(=O)NC1CC(N)C(OC2OC(CN)C(O)C(O)C2O)C(O)C1OC1OC(CO)C(O)C(N)C1O (some centres not stated)	-0.6	-0.41
NC(=O)c1ccccc1NCC(=O)c1ccc(F)cc1	-0.5	.
Cc1cc(C(=O)CSc2ncnc3sc4c(c23)CCCC4)c(C)n1Cc1ccco1	-0.3	.
O=C(Nc1ccccc1)N1CCN(c2ccc(F)cc2)CC1	-2.0	.
CC1CCCCN1c1ccc(N)cc1 (configuration not stated)	-3.4	0.39
CC(=O)Nc1ccc(NC(=O)c2ccc(I)cc2)cc1	-1.9	-0.0005
CC(N=CC1=C(O)CC(C)(C)CC1=O)c1ccccc1 (configuration not stated)	-1.3	1.3
O=C(c1cccc(CN2CCN(c3nc(-c4ccccc4)ns3)CC2)c1)N1CCC(O)CC1	-0.9	.
Cc1ccc(Oc2ccccc2)c(NC(=O)c2ccccc2)c1	1.1	.
COc1ccc(OCC(O)Cn2c(=N)n(Cc3ccccc3)c3ccccc32)cc1 (configuration not stated)	-8.9	1.1
Cc1cc(C)cc(Nc2cc(C)nc(-n3nc(C)cc3C)n2)c1	-0.2	-1.2
COc1ccc(CN2CCSCC2)c(C)c1C	-3.8	-0.31
CC(C)(C)C1CCC(OC(=O)CN2CCCCC2)CC1 (configuration not stated)	3.2	-0.59
NC(=O)Cn1nc(C(=O)O)c2ccccc2c1=O	-0.1	.
CCc1cc2c(cc3c(=O)n(CCCC(=O)NC4CCCCC4)ncn32)s1	-2.7	0.022
CS(=O)(=O)N(CC(=O)N1CCCCC1)Cc1ccccc1	-1.9	1.2
CCOC(=O)COc1nc(C)c(Br)c(OC)n1	0.3	0.31
COc1ccc(NC(=O)Nc2ccc(C(=O)N3CCOCC3)cc2)cc1OC	-2.0	0.58
CC(C)(C)C(=O)CSc1nc2ccccc2[nH]1	-1.2	-1.5
COc1cc2c(cc1OC)-c1nnnn1C(C)(C)C2	-2.5	-0.17
COc1ccc(/C=N/NC(=O)c2ccoc2C)cc1CN1CCN(c2ccc(F)cc2)CC1	-2.0	-0.92
O=C(COc1ccc2oc(-c3ccco3)cc(=O)c2c1)OC1CCCCC1	-1.0	0.83
COc1ccc(Cl)cc1S(=O)(=O)N1CCN=C1c1ccccc1	3.7	-1.6
CCOc1ccc(C2c3c(oc4ccccc4c3=O)C(=O)N2CCCN2CCOCC2)cc1 (configuration not stated)	2.6	0.23
O=C(NCCN1CCOCC1)c1ccc2c(c1)OCCO2	0.1	-0.51
C[C@@]12CCC3[C@@H]4CCC[C@@](C)(C(=O)O)[C@H]4CC[C@]3(C/C1=N/O)C2 (some centres not stated)	1.1	-0.012
Cc1ccc(S(=O)(=O)N2CCN(C(=O)CSc3nnc(Cc4csc(C)n4)o3)CC2)cc1	0.7	.
O=C(CC1Nc2ccccc2NC1=O)Nc1ccccc1NC(=O)CC1Nc2ccccc2NC1=O (configuration not stated)	0.5	-0.87
COc1ccc(/C=C(\C#N)C(=O)Nc2nc(OC)cc(OC)n2)cc1	-1.6	.
COC(=O)c1ccccc1N=Nc1c(N)[nH]n(-c2ccccc2)c1=O	2.1	0.61

Compounds listed so far with an aryl methoxy group, in the order listed:
SMILES	BasE inh	KSHV LANA nucl
COc1cc(C2NC(=O)C3C4=C(CCC4)SC3N2)ccc1OCC(=O)Nc1ccc(C)cc1 (configuration not stated)	-11	.
COc1ccc(-c2noc(CCCC(=O)N(C)C)n2)cc1	-0.5	1.2
COc1ccc(OCC(O)Cn2c(=N)n(Cc3ccccc3)c3ccccc32)cc1 (configuration not stated)	-8.9	1.1
COc1ccc(CN2CCSCC2)c(C)c1C	-3.8	-0.31
CCOC(=O)COc1nc(C)c(Br)c(OC)n1	0.3	0.31
COc1ccc(NC(=O)Nc2ccc(C(=O)N3CCOCC3)cc2)cc1OC	-2.0	0.58
COc1cc2c(cc1OC)-c1nnnn1C(C)(C)C2	-2.5	-0.17
COc1ccc(/C=N/NC(=O)c2ccoc2C)cc1CN1CCN(c2ccc(F)cc2)CC1	-2.0	-0.92
COc1ccc(Cl)cc1S(=O)(=O)N1CCN=C1c1ccccc1	3.7	-1.6
COc1ccc(/C=C(\C#N)C(=O)Nc2nc(OC)cc(OC)n2)cc1	-1.6	.

Further records:
SMILES	BasE inh	KSHV LANA nucl
O=C1/C(=N/NC(=O)C2CC2)c2cccc3cccc1c23	1.1	.
Clc1ccc(OCc2nc(CSc3cccs3)no2)c(Cl)c1	-0.2	.
O=C(c1ccco1)N1CCN(C(c2coc3ccc(Cl)cc3c2=O)c2nnnn2C2CCCC2)CC1 (configuration not stated)	0.3	0.47
CCCCCCn1c(COc2ccccc2F)nnc1SCc1cc(=O)n2ccsc2n1	0.4	.
CCN(CC)C(=S)SCc1nc(N)nc(Nc2ccccc2)n1	-2.0	.
Cc1nc(SCC(=O)NC(C)(C#N)C(C)C)n(CC(C)C)c1C (configuration not stated)	1.7	.
COc1ccccc1/C=N/NC(=O)c1ccc(=O)n(C)c1	-1.3	0.7
Fc1ccc(N2CCN(Cc3cccs3)CC2)cc1	-1.2	-0.72
NC(=O)CC1Nc2cccc3cccc(c23)NC1=O (configuration not stated)	3.1	-0.74
FC(F)(F)c1ccc(C=Nc2cc(Cl)cc(Cl)c2)cc1	3.6	.
O=C1CCCC/C1=C/Nc1ccc(Cl)cn1	0.9	.
C#CCn1c(O)c(N=NC(=O)c2ccncc2)c2cc(Br)ccc21	-1.1	-1.2
CC1(C)OC(=O)C(=Cc2cc3ccccc3o2)C(=O)O1	2.1	-0.2
CSc1cccc(NC(=O)N(Cc2ccccc2)C(=O)CC#N)c1	-1.2	.
N/C(=N\c1nc2ccccc2o1)NC(=O)C(Sc1ccccc1)c1ccccc1 (configuration not stated)	0.0	.
O=C(O)CNC(=O)c1ccc(NS(=O)(=O)c2ccc(Br)cc2)cc1	0.9	.
COc1ccc(O)c(/C=C(\C#N)C(N)=O)c1	-0.5	.
Fc1ccc(C(c2nnc(-c3ccccc3)o2)N2CCN(Cc3ccccc3)CC2)cc1 (configuration not stated)	0.8	-0.26
Cn1nc(-c2ccccn2)sc1=S	0.7	.
NCC1CCN(Cc2ccccc2Cl)CC1	-2.6	1.6
NC(=O)C1CCN(C(=O)C2CCN(S(=O)(=O)c3ccc(-n4cnnn4)cc3)CC2)CC1	1.0	-0.54
CC(C)CCn1c(=O)c2[nH]c(=S)[nH]c2n(CC(C)C)c1=O	-0.9&0.8	0.092
CC(OC(=O)c1ccc2c(c1)C(=O)N(Cc1ccco1)C2=O)C(=O)c1ccccc1 (configuration not stated)	1.4	.
CSc1nnc(C2CCCN(CC(=O)N3CCCC3)C2)n1C (configuration not stated)	-1.2	-0.21
Cn1ncc2c(NN3C(=O)CCC3=O)ncnc21	4.4	.
Cc1ccc(S(=O)(=O)N2CCCC2C(=O)Nc2nccs2)cc1 (configuration not stated)	-0.9	0.37
O=C(CSc1nnc(COc2ccccc2Cl)o1)NC12CC3CC(CC(C3)C1)C2	2.1	.
O=C(/C=C/c1ccco1)OCC(=O)c1ccc(Cl)s1	0.3	.
O=C(NCC1COc2ccccc2O1)Nc1ccc(Cl)cc1 (configuration not stated)	2.8	.
Cc1cc(Cl)ccc1NC(=O)CCC(=O)N/N=C1\CCCCC1C (configuration not stated)	3.6	-0.3
Cc1ccc(C(=O)N2CCCC2)cc1NC1=NC2CS(=O)(=O)CC2S1 (configuration not stated)	-0.9	-0.52
Cc1cc(NC(=O)CN2CCc3sccc3C2c2cccs2)no1 (configuration not stated)	-0.8	.
CNc1ccccc1C(C)(C)c1cc(-c2ccc(Cl)cc2)no1	2.7	.
Cc1ccc(S(=O)(=O)c2cn[nH]c2-c2ccc(Cl)cc2)cc1	.	-0.65
COc1cc(CNC2CCCCC2C)cc(OC)c1 (configuration not stated)	0.2	-0.88
CC(C)(C)SCC(O)Cn1c2ccc(Cl)cc2c2cc(Cl)ccc21 (configuration not stated)	-0.5	.
CCC(C)c1cc(N)nc2nc3ccccc3n12 (configuration not stated)	-2.7	.
COc1cccc(CN(Cc2ccc3c(c2)OCO3)S(=O)(=O)c2ccc(-n3cnnn3)cc2)c1	-0.3	-0.24
CC1CC(C)CN(CCCNC(=O)CCn2cnc3onc(-c4ccc(F)cc4)c3c2=O)C1 (configuration not stated)	-7.5	.
Cc1cc(C)n(NC(=S)NC2CC3C=CC2C3)c(=O)c1C#N (configuration not stated)	-3.2	1.6
Cc1cccc(-n2ncc3c(N4CCc5ccccc54)ncnc32)c1	0.8	-0.8
Cc1ccc(NC(=S)/N=C(\N)C(C)C)cc1	0.2	-1.3
C#CCn1c(C2CCCCC2)nc2ccccc21	-2.0	0.16
COC(=O)c1cnc(N2CCOCC2)nc1C(F)(F)F	2.9	.
O=c1ccc2cc(S(=O)(=O)Nc3ccc(F)cc3)ccc2o1	1.2	-1.1
CCCCC1(CN2CCN(Cc3ccccc3)CC2)C(=O)N(c2ccccc2)N(c2ccccc2)C1=O	0.5	.
CC1(C)CC(=O)C2=C(C1)N1C(=C(C#N)C2c2ccccc2F)N=C(N)c2ccccc21 (configuration not stated)	2.4	-0.13
O=C1c2ccccc2C2N1CCCN2S(=O)(=O)c1cccc(C(F)(F)F)c1 (configuration not stated)	-1.7	.
N#CC1=C(N)Oc2c(sc3ccccc23)C1c1ccco1 (configuration not stated)	-28	4.9
CN(C)S(=O)(=O)c1ccc(NC(=O)CN(C)S(=O)(=O)c2ccc(Cl)cc2)cc1	0.6	.
CC1CCCCN1C(=O)COC(=O)c1ccc2[nH]c3c(c2c1)CCCC3 (configuration not stated)	-3.1	.
CC1(C(=O)N2CCOCC2)CCC(C(=O)N2CCOCC2)C1(C)C (configuration not stated)	0.4	.
Cc1c(Nc2cc(=O)oc3ccccc23)c(=O)n(-c2ccccc2)n1C	2.1	0.072
CC(C)(C)c1ccc(OCC(=O)Nc2ccc3c(c2)oc2ccccc23)cc1	-0.6	.
OCCCNc1nc(-c2cccs2)nc2ccccc12	-7.7	.
CCc1ccc2[nH]c3nc(=S)[nH]nc3c2c1	1.6	.
Cc1nnc(N/N=C/c2c(O)n(-c3cccc(C(F)(F)F)c3)c(=O)c3ccccc23)[nH]c1=O	-11	.
CCCC(=O)N1CCCC(c2nc(-c3cccs3)no2)C1 (configuration not stated)	-0.8	-0.21
CC(C)OC(=O)c1cccc(-c2nn[nH]n2)c1	0.2	.
Cc1oc2ncnc(N3CCCCC3)c2c1C(=O)N1CCOCC1	0.4	.

Source: PubChem BioAssay

Not all compounds are listed; the hit share may differ from the screen's.
